VACV Venus inh: qHTS for Stage-Specific Inhibitors of Vaccinia Orthopoxvirus: Venus Reporter Primary qHTS; Vaccinia virus Venus reporter expression, fluorescence; Potency, µM (top dose mostly 36.5 µM), without a hit: at the top dose activity change, negative = inhibition, most hits filed as inhibitors; 0.46% of 330,000 active; AID 720580, 2013; active means well fitted inhibition curve with a large enough effect; inconclusive means small, poorly fitted or top-dose-only effect; inactive means no such curve, though single readings can be large or run the other way; tested in A549 cells; also: nearly all actives have a fitted effect of over 30% in size; inactives centre near -10
VACV mCherry inh: qHTS for Stage-Specific Inhibitors of Vaccinia Orthopoxvirus: mCherry Reporter Primary qHTS; 0.63% of 310,000 active; Vaccinia virus mCherry reporter infection, fluorescence; about a quarter of the inactives have no number; AID 720579, 2013; Potency, µM (highest dose often 36.5 µM), for the others: at the top dose activity change, negative = inhibition, most hits filed as inhibitors; active = well fitted inhibition curve with a large enough effect; inconclusive = small, poorly fitted or top-dose-only effect; inactive = no such curve, though single readings can be large or run the other way; tested in A549 cells; also: nearly all actives have a fitted effect of over 35% in size; inactives centre near -10
* hit, by the source's call; i = inactive; ? = inconclusive; . = not tested or not shown; [ ] = dose if it differs, or a comment. % is scaled to controls: 0 for no effect and ±100 for the full control effect; potency is read from the fitted curve at half-maximal effect.

Values run as follows: VACV Venus inh	VACV mCherry inh
Cc1ccc(S(=O)(=O)N2CCN(C(=O)COC(=O)C3CCC3)CC2)c(C)c1
→ -3.8%	-3.8%
CCOc1ccc(OCCC(=O)OCC(=O)N2CCN(S(=O)(=O)c3ccc(Cl)cc3)CC2)cc1
→ -20.1%	?
CCOC(=O)N1CCN(C(=O)C2CCC(=O)N(CCCN3CCCC3=O)C2)CC1 (configuration not stated)
→ -12.0%	-5.2%
COc1ccc(CCNC2=C(Cl)C(=O)N(CCc3ccccc3)C2=O)cc1OC
→ -15.4%	-17.2%
C[C@@H]1CN(Cc2ccc3c(c2)CN(Cc2nc(-c4ccccc4)cs2)CCO3)C[C@H](C)O1
→ -24.7%	-22.5%
O=C(NCc1ccncc1)[C@@H]1CCCN1C(=O)[C@@H]1CCCN1C(=O)c1cccs1
→ -5.6%	27.9%
COc1cc(OC)c(C(=O)N(CCc2ccccc2)Cc2ccccc2)cc1OC
→ -17.8%	-1.2%
Cc1ccc(C(=O)Nc2cc(Cl)ccc2N2CCCCC2)s1
→ -2.7%	.
COc1ccc(NC(=O)c2cc3ccccc3o2)cc1OC
→ 2.0%	-14.6%
Clc1ccc(Sc2cnc3ccccc3n2)cc1
→ -2.6%	.
CC(Oc1coc(CN2CCN(C(=O)c3ccco3)CC2)cc1=O)c1ccccc1 (configuration not stated)
→ -2.7%	-10.6%
CCOc1cc(/C=C2/SC(=S)NC2=O)ccc1OC(=O)c1ccco1
→ i	-8.4%
COC(=O)c1ccccc1S(=O)(=O)N1CCC(C(=O)OC(C)C(=O)N(C)Cc2ccccc2)CC1 (configuration not stated)
→ -12.4%	-21.2%
CC(C)(C)c1ccc(NC(=O)N2CCCN(c3ccc([N+](=O)[O-])cn3)CC2)cc1
→ ?	i
COc1ccc(-c2nc3c(c(=O)n(C)c(=O)n3C)n2CC2CC(c3ccccc3)=NO2)cc1OC (configuration not stated)
→ ?	.
COc1ccc(NCC(=O)N/N=C/c2cc([N+](=O)[O-])ccc2N2CCCC2)cc1
→ -9.3%	7.5%
CC(C)COC(=O)c1ccccc1N1C(=O)C2C3CCC(C3)C2C1=O (configuration not stated)
→ -12.3%	-16.9%
Cn1c(=O)c2c(ncn2CC(=O)OCC(=O)Nc2ccc(Cl)cc2)n(C)c1=O
→ -0.6%	-10.5%
Nc1nonc1-n1nnc(C(=O)N/N=C/C2CC=CCC2)c1CSc1ccccc1 (configuration not stated)
→ -2.5%	-2.8%
Cc1nc2ccccc2nc1CSc1nnc(N)s1
→ -12.9%	.

A section taken from the entries so far, as a working copy:
Values run as follows: VACV Venus inh	VACV mCherry inh
Nc1nonc1-n1nnc(C(=O)N/N=C/C2CC=CCC2)c1CSc1ccccc1 (configuration not stated)
→ -2.5%	-2.8%
Cc1nc2ccccc2nc1CSc1nnc(N)s1
→ -12.9%	.

(more compounds)
Values run as follows: VACV Venus inh	VACV mCherry inh
COc1cc2cc(CCCOC(=O)c3ccc(F)cc3)oc(=O)c2cc1OC
→ -16.5%	7.1%
Cc1c(C(=O)N/N=C/c2ccccc2)[nH]c2ccc(Cl)cc12
→ ?	-29.6%
COC(=O)c1ccc(CSc2cc(C)c3ccccc3n2)o1
→ -10.1%	-15.2%
CCOc1ccc(CCNC(=O)c2cc3sccc3n2C)cc1OCC
→ -13.5%	-21.3%
COc1ccc(C(=O)N2CCN(Cc3ccccc3C)CC2)cc1OC
→ -15.7%	-30.6%
COc1ccccc1Cc1c(-c2ccc(OC)c(OC)c2)nc2c3ccccc3ccn12
→ -3.1%	i
CC(C)C[C@@H]1COc2cc(N(C)CCO)ccc2S(=O)(=O)N1
→ -2.3%	33.5%[activator]
c1ccc(OCCOc2ccccc2-c2nnco2)cc1
→ -7.3%	-4.0%
CCCNC(=O)C1(C)CCCN(C(=O)COc2ccc(C(C)(C)C)cc2)C1 (configuration not stated)
→ -9.9%	-9.5%
CCOC(=O)N/N=C\c1ccc([N+](=O)[O-])o1
→ ?	-29.3%
CC(c1ccccc1)n1c(SCC(=O)N2CC(=O)Nc3ccccc32)nc2ccccc2c1=O (configuration not stated)
→ ?	-28.4%
COc1ccc(CNc2nc3c(c(=O)n(C)c(=O)n3C)n2Cc2ccccc2Cl)cc1
→ -16.1%	-14.2%
O=C(NNC(=O)c1c(O)c2ccccc2[nH]c1=O)c1ccccc1Br
→ -14.2%	-12.3%
O=C(NCc1ccco1)C1CCCN(S(=O)(=O)c2ccc(Br)cc2)C1 (configuration not stated)
→ 2.7%	-6.1%
CCCc1ncc(C(O)c2cccc(OC)c2OC)n1C (configuration not stated)
→ -4.3%	-3.9%
CN(Cc1ccccc1)S(=O)(=O)c1ccc(Cl)c(C(=O)NCc2cccnc2)c1
→ -22.9%	-1.7%
CC(=O)NC(Cc1ccccc1)C(=O)OCC(=O)c1ccc(Br)cc1 (configuration not stated)
→ -17.1%	-8.7%
O=C(Cc1ccccc1)Nc1ccnn1C1CCN(Cc2ccc(CO)o2)CC1
→ -12.5%	-8.0%
Cc1ccnc(NCc2cc(Cl)cc(Cl)c2O)c1
→ -16.8%	i
O=C(O)CN(Cc1ccco1)S(=O)(=O)c1ccc(F)cc1
→ -13.3%	-12.1%
Cc1cc(C)c(NC(=O)Cn2c(=O)n(CC(=O)NCc3ccccc3Cl)c(=O)c3sccc32)c(C)c1
→ 3.5%	2.3%
Cn1nnc2cc(C(=O)N3CCSCC3)ccc21
→ -7.2%	-7.4%
COC(=O)C1=C(c2ccc(C(C)=O)cc2)C[C@@H]2CC[C@H]1N2C(=O)NCc1ccc(C(F)(F)F)cc1
→ -5.7%	-4.1%
Cc1cccc(OCC(=O)NCCCNC(=O)c2ccco2)c1
→ 4.4%	-1.7%
CCc1ccc(NC(=O)CCCn2nc(C)c3c(C)n(-c4ccccc4)nc3c2=O)cc1
→ -11.6%	-19.6%
CCCn1ncc(CN2CCC(C(=O)Nc3cccc(-c4cccc(F)c4)c3)CC2)c1C
→ ?	?
CCCNC1=C(N(C(C)=O)c2cccc(F)c2)C(=O)c2ccccc2C1=O
→ 12.6µM*	14.1µM*
COc1ccc(-c2cc(C(=O)N/N=C(\C)c3cccnc3)c3ccccc3n2)cc1
→ -19.6%	-13.1%
CCC(C)c1ccc(OCc2ccc(C(=O)O)o2)cc1 (configuration not stated)
→ -13.0%	-12.6%
CCOC(=O)C1(C)CCCCN1C(=O)c1cccc(Cl)c1 (configuration not stated)
→ 14.4%	i
COCc1cc(C)nc(SCC(=O)Nc2ccc(N3CCOCC3)cc2)c1C#N
→ -5.5%	-10.9%
Cc1cc(C)cc(NC(=S)NCc2ccc(S(N)(=O)=O)cc2)c1
→ -4.1%	-1.2%
Cn1c(=O)c2c(nc(SCCN3CCCCC3)n2Cc2ccc(Cl)cc2)n(C)c1=O
→ -19.9%	?
Cn1nnc2c(N3CCN(c4ccccc4F)CC3)ncnc21
→ -9.8%	-22.9%
Nc1nc(SCc2ccc(Cl)cc2Cl)c2ncn(C3OC(CO)C(O)C3O)c2n1 (configuration not stated)
→ -23.1%	i
Cc1nc2sc(C(c3ccc(Cl)cc3)N3CCN(C(=O)c4ccco4)CC3)c(O)n2n1 (configuration not stated)
→ -12.5%	i
CCOC(=O)Cc1c(C)nc2c(-c3ccc(Cl)cc3)c(C(F)(F)F)nn2c1C
→ 8.2%	-2.5%
COc1ccc(S(=O)(=O)Nc2cccc3c2O[C@H](CN(C)C(=O)Nc2ccccc2)[C@@H](C)CN([C@H](C)CO)C3=O)cc1
→ -14.4%	-5.7%
CC(C)(C)c1ccc(C(=O)OC/C(O)=C(\C#N)c2nc3ccccc3s2)cc1
→ -4.5%	-5.3%
Cc1ccc(Cl)cc1NC(=O)Cc1ccc(-n2c(C)nc3cccnc32)cc1
→ -9.4%	i
Cc1coc2cc3oc(=O)c(CCC(=O)N4C[C@H]5C[C@@H](C4)c4cccc(=O)n4C5)c(C)c3cc12
→ 11.3%	-2.0%
COc1ccc(OC)c(C=NNC(=O)c2ccc(NS(=O)(=O)c3cccs3)cc2)c1
→ -8.9%	i
O=C(NCC1CCCO1)C1CCCN(S(=O)(=O)c2ccc(Br)cc2)C1 (configuration not stated)
→ -18.6%	i
COC(=O)c1ccc(NC(=O)CN2CCN(CCO)CC2)cc1
→ -4.9%	-1.2%
O=C(Nc1ccc2nc(SCC(=O)N3CCc4ccccc43)sc2c1)c1cccc(F)c1
→ -8.3%	-11.3%
Cc1cc(Cl)c(S(=O)(=O)N2CCCCCC2)cc1OCC(N)=O
→ -20.2%	?
CCN(CC)C(=O)CSc1nnc(-c2ccccn2)n1Cc1ccccc1
→ -0.9%	-13.2%
CCOC(=O)N1CCC(N2Cc3cccc(C(=O)O)c3C2=O)CC1
→ 1.4%	i
Cc1cc(C)cc(NC(=O)CSc2nnc(-c3ccc(S(=O)(=O)N4CCCC4)cc3)o2)c1
→ -2.3%	-9.2%
CCc1ccc2[nH]c(C(=O)Nc3ccc(C)c(F)c3)cc2c1
→ -20.2%	-8.9%
CC(C)C1Nc2ccc(C(=O)NCCCN3CCOCC3)cc2NC1=O (configuration not stated)
→ -6.7%	-10.6%
COCCNC(=S)NN(c1ccccc1)c1ccccc1
→ -3.1%	-7.8%
O=C(Nc1cc(F)ccc1F)c1cccc(-n2cnnn2)c1
→ 9.0%	-10.8%
c1ccc2c(c1)ncn2CCOCCOCCn1cnc2ccccc21
→ -24.8%	.
COc1ccccc1CNC(=O)c1cccc(Nc2nc3ccccc3n3nnnc23)c1
→ -22.4%	-27.8%
CCCCCC(=O)N(O)C1CC(=O)N(c2ccccc2)C1=O (configuration not stated)
→ 0.8%	-5.9%
C=CCC1(N(C(C)=O)c2ccccc2C)CCCCC1
→ -1.6%	i
Nc1ccc[n+](CC(=O)c2ccc(F)cc2)c1
→ 309.9%[activator]	33.6%[activator]
Cc1ccc(/C=C/C(=O)O)cc1S(=O)(=O)NCc1ccco1
→ -14.0%	i
CC(=O)Nc1ccc(S(=O)(=O)C(C#N)c2nc3ccccc3nc2NCCCO)cc1 (configuration not stated)
→ -1.5%	i

The list goes on:
Values run as follows: VACV Venus inh	VACV mCherry inh
C=C(C)n1c(=O)[nH]c2ccccc21
→ -9.5%	-17.3%
CCOC(=O)Cn1c(=O)oc2cc(S(=O)(=O)NC3CCCCC3)ccc21
→ -2.5%	i
CCc1nnc(NC(=O)CSc2ncnc3c2cnn3-c2ccc(OC)cc2)s1
→ 3.3%	-9.4%
COc1ccc(CC(=O)NCCc2csc(-c3cccc(F)c3)n2)cc1OC
→ 0.2%	-9.4%
O=C(N/N=C/c1cccnc1)C1CC1(c1ccccc1)c1ccccc1 (configuration not stated)
→ -11.5%	i
CCOc1ccc(S(=O)(=O)N2CCN(c3nc(-c4ccccc4)nc4ccccc34)CC2)cc1
→ -15.4%	-11.5%
Cc1ccc(Cc2c(-c3cccc(Br)c3)nc3cc(C)c(Br)c(C)n23)cc1
→ 12.5%	57.1%[activator]
COc1ccc(OCC(=O)Nc2ccc(Cl)cc2)cc1
→ 3.4%	i
COc1ccc(-c2nc(-c3ccccc3)c(-c3ccc(F)cc3)[nH]2)c(OC)c1C
→ -10.0%	-7.2%
CCCC[C@@H]1CNCCN1CCc1cc(C(F)(F)F)cc(C(F)(F)F)c1
→ ?	-26.9%
COC(=O)[C@]1(C)N[C@H](CN(C)C(=O)c2ccccc2)[C@@H]2C(=O)N(Cc3ccccc3)C(=O)[C@@H]21
→ 0.0%	-9.7%
COc1ccc(O)c(C(C)(C)C)c1
→ -12.3%	i
COc1cc(NC(=O)CCN2CCN(c3ccccc3F)CC2)cc(OC)c1
→ -24.1%	i
O=C(/C=C/c1ccc(Cl)cc1)NCCc1ccccc1
→ -13.1%	i
CNC(=O)CN(c1cc(OCCOC)c(Cl)cc1Cl)S(=O)(=O)c1ccc(OC)cc1
→ 1.0%	-28.8%
CCOc1ccc(NC(=O)CCC(=O)NNC(=O)COc2ccccc2C)cc1
→ -14.3%	-13.5%
CCOC(=O)c1c(NC(=O)CSc2cn(CCNC(=O)c3ccccc3F)c3ccccc23)sc2c1CCC2
→ -16.4%	-15.6%
CCOC(=O)[C@]12CCCC=C1N(CCC1=CCCCC1)C(=O)[C@H](CC(=O)NCc1ccccc1)C2
→ ?	-28.3%
CSc1nc2ccc(NC(=O)C3CCCO3)cc2s1 (configuration not stated)
→ -8.4%	-28.4%
CCCOC(=O)c1c(NC(=O)CCC(=O)O)sc2c1CCCCC2
→ 0.8%	i
CCCC1NC(C(=O)O)Cc2c1[nH]c1ccccc21 (configuration not stated)
→ 4.7%	-7.7%
CCc1ccccc1NC(=O)CN(Cc1ccccc1)S(=O)(=O)c1ccc2nc(C)sc2c1
→ -13.0%	-13.9%
CCc1nnc(NC(=O)c2ccc(Br)o2)s1
→ -7.1%	i
O=C(O)C1C2CCC(O2)C1C(=O)Nc1ccc(F)cc1 (configuration not stated)
→ -9.0%	-7.1%
CNCCC=C1c2ccccc2C=Cc2ccccc21
→ -22.2%	-1.1%
Cc1ccc(NC(=O)N2CCC3(CC2)Oc2ccccc2C(=O)N3Cc2ccc(F)cc2)cc1
→ -20.3%	-9.9%
CC(=O)Oc1ccc2c(C)cc(=O)oc2c1C(=O)c1ccccc1
→ -15.6%	-23.0%
Cc1ccc(CNn2cnnc2SCC(=O)NC(C)(C)C)cc1
→ -8.8%	-3.9%
CC1(Cc2ccccc2OC(F)(F)F)C(=O)Nc2cc(-c3ccccc3Cl)ccc21 (configuration not stated)
→ -13.7%	i
NC(=S)n1[nH]c(-c2ccc([N+](=O)[O-])cc2)c(N=Nc2ccc(Cl)cc2)c1=O
→ ?	?
Cn1c(=O)n(C)c2cc(C(N)=O)ccc21
→ -6.9%	i
